Screens from PubChem.
Mtb growth = Confirmatory growth inhibition assay against Mycobacterium tuberculosis H37Rv, potency (AID 1949). most inactive calls were filed without a number and no value below 0 was filed. inhibition, % at 10 µg/mL; hits with a dose series show IC50 in µg/mL. 1.6% of 100,000 active;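 active means confirmed in a dose series; inconclusive means about 50% or more but not retested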;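 further: bacteria grown 7 days with compound before Alamar blue readout; 0% = untreated bacteria and 100% = reference antibiotic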
* = called active by the depositor; i = inactive; u = inconclusive.

SMILES | Mtb growth
O=C(Nc1ccc(F)c(F)c1)c1ccc(CN2CCOCC2)cc1 | i
CCCCC(C)NC(=O)C1CC(=O)N(c2ccc(OCC)cc2)C1 (stereo not given) | 6%
COC(=O)Cc1ccc(NC(=O)c2ccc3c(c2)C(=O)N(C(C)(C)C)C3=O)cc1 | i
Cc1cc2sc(NC(=O)c3cccs3)nc2cc1Cl | i
CC(=O)c1cccc(NC(=O)COc2cccc(C)c2C)c1 | 3%
Cc1cc(=O)[nH]c(SCCOc2ccccc2C#N)n1 | i
O=C(c1ccccc1Cl)N1CCN(S(=O)(=O)c2ccccc2)CC1 | i
CC(C)CC(=O)NC(=S)Nc1ccc(Br)c2ccccc12 | 0%
S=C(Nc1ccccc1)N1CCc2ccccc2C1 | 2%
O=C(Nc1ccc2nc(SCC(=O)N3CCc4ccccc43)sc2c1)c1ccc([N+](=O)[O-])cc1 | i
Cc1ccc(OCCn2ccnc2)c([N+](=O)[O-])c1 | i
COc1ccccc1N1CCN(CCNC(=O)Nc2cccc(C)c2C)CC1 | 28%
CSc1ccc(NC(=O)NCCN2CCc3ccccc3C2)cc1 | i
CCOc1ccc(Br)c(C2NC(=O)NC(C)=C2C(=O)OC)c1 (stereo not given) | i
CC(Oc1ccccc1)C(=O)N1CCN(CCO)CC1 (stereo not given) | i
O=C(COc1ccc(Br)cc1Cl)Nc1ccc(S(=O)(=O)Nc2ccccc2)cc1 | i
COc1cc(OC)c(NC(=S)Nc2cc(Cl)cc(Cl)c2)cc1Cl | u
C=CCNC(=O)CCc1nc(-c2ccccc2Cl)no1 | i
S=c1[nH]nc(COc2ccc(Br)cc2)n1Cc1ccccc1 | i
Cc1ccc(SCCSc2ncccn2)cc1 | 8%
O=C(CSc1nnc(CCCOc2ccc(Cl)cc2Cl)o1)N1CCN(c2ccccc2)CC1 | i
S=C(Nc1ccc2nsnc2c1)N1CCCCC1 | i
Cc1ccc(C(=O)O/N=C(\N)c2cccc([N+](=O)[O-])c2)cc1Cl | i
O=C(NCc1ccccn1)c1cc(F)c(F)cc1Cl | i
COc1cc(OC)cc(C(=O)Nc2nnc(Cc3ccccc3)s2)c1 | i
O=c1c(Cl)c(Cl)cnn1Cc1ccc(Br)cc1 | i
CCOC(=O)c1ccc(NC(=S)Nc2cccc(NC(C)=O)c2)cc1 | 11%
Cc1ccc(N(CC(=O)Nc2c(C)cc(C)cc2C)S(C)(=O)=O)c(C)c1 | i
CCCCC(=O)Nc1nnc(COC)s1 | i
COC(=O)c1c(-c2ccc(C)cc2)csc1NC(=O)c1cccc([N+](=O)[O-])c1C | i

Reprinted from the listing (four entries):
SMILES | Mtb growth
O=C(NCc1ccccn1)c1cc(F)c(F)cc1Cl | i
COc1cc(OC)cc(C(=O)Nc2nnc(Cc3ccccc3)s2)c1 | i
O=c1c(Cl)c(Cl)cnn1Cc1ccc(Br)cc1 | i
CCOC(=O)c1ccc(NC(=S)Nc2cccc(NC(C)=O)c2)cc1 | 11%

Next section
SMILES | Mtb growth
CC(NCC#Cc1ccccc1)C(O)c1ccccc1 (stereo not given) | i
CCOc1ccc(NC(=O)CSc2nnc(CNC(=O)c3cccc([N+](=O)[O-])c3)n2C)cc1 | i
CCN(C1CCCCC1)S(=O)(=O)c1ccc(Cl)c(Cl)c1 | i
CS(=O)(=O)N(CC(=O)NCc1ccccn1)c1cc(Cl)ccc1Cl | i
COC(=O)C1=C(C)NC2=C(C(=O)CC(c3cccs3)C2)C1c1ccc(F)c(F)c1 (stereo not given) | 14%
Cn1c(SCC(=O)Nc2sc3c(c2C#N)CCCC3)nnc1-c1ccc(Cl)cc1Cl | i
CS(=O)(=O)N(Cc1ccccc1)c1ccccc1C(=O)NCc1ccccn1 | i
COCCNC(=S)N1CCN(Cc2ccccc2)CC1 | i
CC(C)c1c(O)nc(SCC(=O)NC2CCCCC2)n(-c2ccccc2)c1=O | i
CCc1nnc(NC(=O)COc2ccc(F)cc2)s1 | i
CCOc1ccc(N2CC(C(=O)Nc3cccc(Cl)c3)CC2=O)cc1 (stereo not given) | i
C=CCNS(=O)(=O)c1ccc2c(c1)OCCO2 | 1%
CCN1C(=O)CC(Sc2ccccc2C(=O)O)C1=O (stereo not given) | i
CC(=O)c1ccc(COC(=O)C2CC(=O)N(c3cccc(Cl)c3)C2)cc1 (stereo not given) | i
COC(=O)c1ccc(NC(=O)Nc2ccc(OC)cc2)cc1 | 2%
O=C(CSc1nnc(-c2ccccc2O)n1Cc1ccccc1)Nc1ccc(Br)cc1 | i
CCn1c(SCc2ccc(Cl)cc2Cl)nnc1-c1ccccc1 | 6%
COc1cccc(C(=O)Nc2ccc(Cl)c(C(F)(F)F)c2)c1OC | 14µg/mL*
COc1ccc(N(CC(=O)Nc2ccc3c(c2)OCCO3)S(C)(=O)=O)cc1OC | i
O=C(NCC(O)c1ccccc1)C(=O)NC1CCCCC1 (stereo not given) | i
Cc1cc(C)c(NC(=O)C2C3CCC4C(CCC32)C4(Cl)Cl)c(C)c1 (stereo not given) | i
Cc1ccc(C(=O)Nc2ccc(S(=O)(=O)NC(C)(C)C)cc2)cc1I | 4%
CCOC(=O)c1ccc(N2C(=O)CC(C)(CC)C2=O)cc1 (stereo not given) | 4%
O=C1CN(C(=O)CC2c3ccccc3-c3ccccc32)CC(=O)N1 | i
CCc1nnc(SCC(=O)Nc2ccc(OC)cc2)n1N | i
CCCC(=O)Nc1ccc(Cl)c(NC(=O)c2sc3ccccc3c2Cl)c1 | i
Cc1cc(C)n(-c2nc(-c3cccc(Cl)c3)cs2)n1 | u
Cc1cc(C(F)F)n2nc(C(=O)Nc3ccc4c(C(F)(F)F)cc(=O)oc4c3)nc2n1 | i
Cc1ccc(S(=O)(=O)ON2C(=O)c3ccccc3C2=O)c(C)c1 | i
C#CCOc1cc(Br)c(C=O)cc1OC | i

Three of the compounds above, comma-delimited:
SMILES,Mtb growth
C=CCNS(=O)(=O)c1ccc2c(c1)OCCO2,1%
CCN1C(=O)CC(Sc2ccccc2C(=O)O)C1=O (stereo not given),i
CC(=O)c1ccc(COC(=O)C2CC(=O)N(c3cccc(Cl)c3)C2)cc1 (stereo not given),i

Going on with the list.
SMILES | Mtb growth
COC(=O)C(NC(=O)c1ccc(C)cc1)C12CC3CC(CC(C3)C1)C2 (stereo not given) | 5%
COc1ccccc1C(=O)Oc1ccccc1C(=O)Nc1ccccc1 | i
CCOC(=O)c1ccc(-c2ccc(/C=C(\C#N)C(N)=S)o2)cc1 | i
O=C1CCCc2c1[nH]c1ccc(C(F)(F)F)cc21 | 14%
Cc1cc(C)c(S(=O)(=O)NCC(=O)Nc2ccc(F)c(Cl)c2)c(C)c1 | i
COc1cc(/C=C(\C#N)C(N)=S)cc(I)c1OCc1ccccc1C#N | i
Cc1ccc(S(=O)(=O)N2CCN(C)CC2)c2nsnc12 | i
Cc1cc(C)nc(N(C#N)Cc2ccccc2Cl)n1 | i
COc1ccc(Cl)cc1C(=O)NC(=S)Nc1cccc(C(=O)O)c1C | i
C=CCn1c(Cc2c(C)[nH]c3ccccc23)nnc1SCC(=O)Nc1ccc(F)cc1 | i
COc1ccc(C(=O)COc2ccc3c(C(F)(F)F)cc(=O)oc3c2C)cc1 | i
O=S(=O)(Nc1ncccn1)c1ccc(NC(=S)Nc2ccc(Oc3ccccc3)cc2)cc1 | 1%
COc1ccc(-n2c(Cc3ccccc3)nnc2SCC(=O)Nc2ccc(Cl)cc2Cl)cc1 | i
COc1ccc(S(=O)(=O)Nc2cccc(C)c2C)cc1Cl | i
COc1ccc(CC(=O)NC(=S)Nc2cccc(CO)c2)cc1 | i

Of the compounds above, five have a nitro group on carbon:
SMILES | Mtb growth
O=C(Nc1ccc2nc(SCC(=O)N3CCc4ccccc43)sc2c1)c1ccc([N+](=O)[O-])cc1 | i
Cc1ccc(OCCn2ccnc2)c([N+](=O)[O-])c1 | i
Cc1ccc(C(=O)O/N=C(\N)c2cccc([N+](=O)[O-])c2)cc1Cl | i
COC(=O)c1c(-c2ccc(C)cc2)csc1NC(=O)c1cccc([N+](=O)[O-])c1C | i
CCOc1ccc(NC(=O)CSc2nnc(CNC(=O)c3cccc([N+](=O)[O-])c3)n2C)cc1 | i

Later entries.
SMILES | Mtb growth
CC1(C)CC(CC(=O)Nc2ccccn2)C(=O)O1 (stereo not given) | 4%
CC(C)C(C(=O)NC1CCCCC1)N1C(=O)c2ccccc2C1=O (stereo not given) | i
Cc1csc(NC(=O)C2CCC(C)(C(=O)O)C2(C)C)n1 (stereo not given) | i
COc1ccc(S(=O)(=O)Nc2ccc(S(=O)(=O)Nc3ccc(Br)cc3)cc2)cc1C | i
CSc1cccc(NC(=O)CN(c2cc(Cl)c(Cl)cc2Cl)S(C)(=O)=O)c1 | 35%
CC12C(=O)N(CC(=O)O)C(=O)C1C1C=CC2C1 (stereo not given) | i
CC(C)c1ccccc1NC(=O)CN(c1ccccc1Cl)S(=O)(=O)c1ccccc1 | i
CCOc1ccccc1NC(=O)Nc1ccc(F)cc1C | i
Nc1c(NCc2ccccc2)nsc1C(=O)c1ccc(Cl)cc1 | 3%
C=C(C)c1cccc(C(C)(C)NC(=O)N2CCN(c3cccc(OC)c3)CC2)c1 | i
Cc1ccc2oc(-c3cccc(NC(=O)c4cc(Cl)ccc4Cl)c3C)nc2c1 | i
Cc1cc(NC(=O)CSCc2ccccc2)no1 | i
CC(=O)c1cnc2c(C#N)c(C)nn2c1C | i
CCOCCc1nnc(NC(=O)c2cc(Cl)ccc2Cl)s1 | 1%
COC(=O)c1ccc(C2C3=C(CC(c4cccs4)CC3=O)Nc3ccccc3N2C(=O)C2CC2)cc1 (stereo not given) | u

In a second layout: results already given
SMILES	Mtb growth
Nc1c(NCc2ccccc2)nsc1C(=O)c1ccc(Cl)cc1	3%
CC(C)C(C(=O)NC1CCCCC1)N1C(=O)c2ccccc2C1=O (stereo not given)	i
CCOc1ccccc1NC(=O)Nc1ccc(F)cc1C	i
CC1(C)CC(CC(=O)Nc2ccccn2)C(=O)O1 (stereo not given)	4%

(listing goes on)
SMILES | Mtb growth
CCN(Cc1ccccc1)C(=O)c1ccc(C)cc1 | 3%
CCCOc1ccc(C(=O)O)cc1OCC | i
Nc1ccc(-c2nc3ccccc3s2)c(O)c1 | i
CC(Oc1ccc(Cl)cc1Cl)C(=O)Nc1ncccn1 (stereo not given) | i
O=C1CC(c2ccc(Cl)cc2Cl)C2=C(CCCC2=O)N1 (stereo not given) | 3%
Cc1ccc2nc(-c3ccncc3)cc(C(=O)N3CCOCC3)c2c1 | 1%
Cc1c(C)n(C(=O)COc2cccc3cccnc23)c2ccccc12 | i
COc1ccc(C(=O)Oc2cc3oc(=O)cc(C)c3cc2Cl)cc1 | i
COC(=O)Cc1ccc(NC(=S)N2CCN(C(=O)c3ccco3)CC2)cc1 | i
CCS(=O)(=O)N1CCN(c2ccc([N+](=O)[O-])c(NC3C4CC5CC(C4)CC3C5)c2)CC1 (stereo not given) | i
Cc1ccc(S(=O)(=O)c2nc(SCc3ccccc3)sc2Cl)cc1 | 2%
COc1cc(C(=O)NC2(C(F)(F)F)C(=O)N(Cc3ccccc3)C3=C2C(=O)CC(C)(C)C3)cc(OC)c1OC (stereo not given) | i
COc1cccc(C(=O)Oc2c(Cl)cc(C=O)cc2OC)c1 | 3%
CCC(C)c1ccc(OCC(=O)Nc2cccc(C(=O)O)c2C)cc1 (stereo not given) | 3%
COc1cc(OC)cc(C(=O)N2CCC(C(=O)NCc3ccco3)CC2)c1 | i
COc1ccc(Nc2c([N+](=O)[O-])cc3c4c(cccc24)C(=O)N(C)C3=O)cc1Cl | i
CC(C)C(=O)Nc1ccc(C(=O)Nc2ccc(I)cc2)cc1 | i
CCOc1ccc(CC(=O)NNC(=S)NCc2ccc(Cl)cc2)cc1OCC | i
NC(=O)c1cc(-c2ccccc2)sc1NC(=O)Cn1cnc2scc(-c3ccccc3)c2c1=O | i
O=C(Nc1cccc(Cn2cccn2)c1)c1cc(F)c(F)cc1Cl | i
Cc1c(NC(=O)c2ccc(N3CCOCC3)c([N+](=O)[O-])c2)c(=O)n(-c2ccccc2)n1C | i
O=C1C2CCCCC2C(=O)N1c1cccc(C(F)(F)F)c1 (stereo not given) | i
CC(C)N1CCN(C(=O)c2ccco2)CC1 | i
Cc1ccc(CNC(=O)c2oc3ccc(C)cc3c2C)cc1 | i
COc1ccc(C2Nc3cc(C)c(C)cc3NC3=C2C(=O)CC(C)(C)C3)c(OC)c1 (stereo not given) | i
COc1ccccc1OCC(=O)O/N=C(\N)c1cccc(C)c1 | i
CCOC(=O)c1c(CC(C)C)csc1NC(=O)c1cccc(OC(C)=O)c1 | i
COc1ccccc1OCC(=O)Nc1ccccc1C(=O)NC(C)(C)C | 0%
COc1ccccc1NC(=S)NCc1ccncc1 | i
COc1ccc(NC(=O)Nc2ccc(Br)c(C)c2)cc1 | i
Cc1ccn(C(=O)COc2ccc(Cl)c(C)c2)n1 | i
O=C(Nc1ccc(S(=O)(=O)NCc2ccccc2)cc1)c1ccc(F)cc1 | 3%
CC(=O)c1cccc(NS(=O)(=O)c2ccc(C(=O)Nc3ccccc3)cc2)c1 | i
Cc1ccc(C(=O)N2CCN(C(c3ccccc3)c3ccccc3)CC2)cc1Cl | 15%
COc1c(C)cccc1C(=O)N1CCN(c2ccc([N+](=O)[O-])c(NC3CC3)c2)CC1 | i
Cc1nnc(SCC(=O)Nc2cccc(I)c2)s1 | i
COC(=O)c1ccccc1NC(=O)NNC(=O)C1(C)CC1(Cl)Cl (stereo not given) | i
COc1ccc(NC(=O)c2ccc(I)o2)cc1 | i
CC(Oc1ccc(F)cc1)C(=O)NCCN1CCOCC1 (stereo not given) | i
S=C(c1ccc(-c2ccccc2)cc1)N1CCOCC1 | i
O=C(NCc1cccs1)c1ccc(-c2ccccc2)cc1 | 1%
CC1=CC(c2ccccc2)n2nc(NC(=O)c3ccc(F)cc3)nc2N1 (stereo not given) | i
Cc1c(NC(=O)C(C)(C)Oc2ccc(Cl)cc2)cccc1-c1nc2ncccc2o1 | 1%
O=C(CSc1cccc2cccnc12)N1CCCC1 | i
CC(C(=O)N1CCN(C)CC1)N(c1ccc(Oc2ccccc2)cc1)S(C)(=O)=O (stereo not given) | 1%
CCc1ccc(N2CCN(CC(=O)Nc3cc(Cl)ccc3Cl)CC2)cc1 | i
Cc1cccc(NC(=O)CN2C(=O)COc3ccc(Cl)cc32)c1 | 32%

Not all compounds are listed, so the mix of outcomes need not match the whole.
